KCNQ2 enhance – potentiators of rat KCNQ2 potassium channel; 0.54% of 310,000 active; O88943; B-score at 10 µM; CHO-K1 KCNQ2, FluxOR thallium flux fluorescence; active compounds read high;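 active = fluorescence ratio B-score at least 3 SD of library B-scores, with initial fluorescence B-score within 3 SD, cut at about 5.3 in these data; same plate scores as AID 2156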;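 note: B-score of peak minus minimum over baseline fluorescence ratio after K+ and Tl+ stimulus; positive B-score means potentiation of KCNQ2 with more thallium influx and brighter signal; only the inactives scoring about 0 or higher are listed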
Target sequence (O88943 whole entry, looked up): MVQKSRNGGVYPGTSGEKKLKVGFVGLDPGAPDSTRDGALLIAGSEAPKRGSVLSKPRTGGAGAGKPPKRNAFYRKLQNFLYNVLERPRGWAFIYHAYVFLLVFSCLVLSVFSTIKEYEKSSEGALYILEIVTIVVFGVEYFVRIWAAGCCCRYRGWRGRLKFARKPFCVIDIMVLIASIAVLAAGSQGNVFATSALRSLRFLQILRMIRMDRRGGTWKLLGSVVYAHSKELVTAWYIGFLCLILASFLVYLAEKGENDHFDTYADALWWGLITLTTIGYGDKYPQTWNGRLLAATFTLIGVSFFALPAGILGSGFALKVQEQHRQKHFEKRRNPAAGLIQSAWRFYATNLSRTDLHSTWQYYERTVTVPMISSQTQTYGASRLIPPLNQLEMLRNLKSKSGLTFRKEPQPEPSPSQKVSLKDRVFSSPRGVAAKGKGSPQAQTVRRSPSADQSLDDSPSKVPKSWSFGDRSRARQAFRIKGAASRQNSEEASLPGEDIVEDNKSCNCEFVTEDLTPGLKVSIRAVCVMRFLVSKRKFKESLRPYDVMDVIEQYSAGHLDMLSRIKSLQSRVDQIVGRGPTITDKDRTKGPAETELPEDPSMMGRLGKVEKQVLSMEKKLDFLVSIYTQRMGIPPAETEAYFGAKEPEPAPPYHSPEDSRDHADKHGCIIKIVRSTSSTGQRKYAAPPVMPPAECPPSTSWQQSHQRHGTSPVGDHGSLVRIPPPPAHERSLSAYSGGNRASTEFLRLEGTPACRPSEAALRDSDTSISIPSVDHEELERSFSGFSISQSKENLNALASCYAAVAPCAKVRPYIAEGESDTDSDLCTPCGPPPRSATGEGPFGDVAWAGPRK
KCNQ2 enhance baseline – second read-out of KCNQ2 enhance, no call of its own (marks repeat the call); B-score; compound at 10 µM; measured here: initial fluorescence intensity artifact check;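 brightness before thallium and not channel activity; 0 = typical well and far values either way flag optical interference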
* marks the source's active call; other numbers are inactive results. This is a subset; count on the stated rates, not on these rows.

KCNQ2 enhance	KCNQ2 enhance baseline	structure
1.7	-0.16	COc1ccc(C(=O)c2ccc(N3CCOCC3)c([N+](=O)[O-])c2)cc1
12*	-1.3*	COc1ccc(OC)c(NC(=O)NC2CCCCCCC2)c1
2.8	0	O=C1CCCN1CCCNc1ncnc2c1cnn2-c1ccc(Cl)cc1
0.3	-0.02	CC(=O)c1sccc1NC(=O)c1ccccc1C(=O)O
0.79	0.36	COc1ccccc1OCCCCN1CCC(C)CC1
0.73	0.93	COc1ccc(-c2ccccc2)cc1NC(=O)c1ccncc1
1.5	2.3	CCOC(=O)Cn1c(=N)n(Cc2ccccc2)c2ccccc21
0.92	0.09	COc1ccc(-c2noc(CCCC(=O)NCc3ccco3)n2)cc1OC
1.4	0.33	CCOc1ccc(C(=O)NCC(=O)NNC(=O)C2COc3ccccc3O2)cc1OCC (configuration not stated)
1.5	0.31	Oc1c(/C=N/c2ccccn2)sc2ccccc12
0.68	2.2	Fc1ccc(-c2nc3ccccc3[nH]2)cc1
0.52	1.6	N#Cc1cccc(NC(=O)c2ccccc2C(=O)O)c1
0.84	-2	O=C(COc1cccc(Cl)c1)Nc1nc(-c2ccc(S(=O)(=O)N3CCOCC3)cc2)cs1
2.9	0.64	Cc1ccc(C(=O)Nc2cccc(C(F)(F)F)c2)cc1NC(=O)c1cnnc2ccccc12
0.88	-2.1	COC(=O)c1ccc(C2/C(=C(\O)c3cccc(OC)c3)C(=O)C(=O)N2CCCN2CCOCC2)cc1 (configuration not stated)
0.12	0.05	CCn1nc(C(=O)OCC(=O)NCCN2C(=O)CSC2=O)c2ccccc2c1=O
0.08	0.52	COc1ccc2nc(NC(=O)CCNS(=O)(=O)c3ccc4c(c3)oc(=O)n4C)sc2c1
1.1	-0.39	CCSc1nnc2c(n1)[nH]c1c(C)cccc12
0.1	1.8	CC(=O)C1=C(C)NC(=O)NC1c1cccs1 (configuration not stated)
1.5	-2.4	COc1ccccc1NC(=O)CN1CCN(c2ccccc2OC)CC1
1.1	-0.27	CCn1c(CNC(=O)Cc2ccc(OC)cc2)nnc1SCC(=O)Nc1ccc(C(=O)O)cc1
0.19	0.24	CCOc1ccc(S(=O)(=O)N2CCCC(C(=O)NC3CC3)C2)cc1Cl (configuration not stated)
0.46	0.56	Cc1ccc(CSc2nnc(-c3ccccn3)n2C)cc1
1.7	1.6	NC(=O)c1ccc(-n2nnnc2Oc2ccccc2C(=O)N2CCOCC2)cc1
0.91	0.72	CC1CC(C)CN(C(=O)c2ccc(CSc3nc4ccncc4[nH]3)cc2)C1 (configuration not stated)

New compounds follow.
KCNQ2 enhance	KCNQ2 enhance baseline	structure
2.9	-1.2	O=C(CCNC(=O)c1ccccc1Cl)Nc1nccs1
0.79	-0.8	O=C(OCc1ccccc1)c1ccc(Br)o1
2.4	-1.1	CC(=O)NCCC(=O)Nc1nc(-c2ccc3c(c2)OCCO3)cs1
0.03	1.9	NC(N)=NC1=NC(=O)C(Cc2ccccc2Cl)S1 (configuration not stated)
0.34	0.01	COc1cccc(C2C(C(=O)c3sc(C)nc3C)=C(O)C(=O)N2CCN2CCOCC2)c1OC (configuration not stated)
0.89	-0.2	COc1ccc(Nc2ccc(N3C(=O)CCCC3=O)cc2[N+](=O)[O-])cc1OC
1.6	-0.33	O=C1CCC(=O)N1N1C(=O)C2C3c4ccccc4C(c4ccccc43)C2C1=O (configuration not stated)
1.4	-2.2	CC(C)(C)c1ccc(OCCC(=O)OCC(=O)NC2CCCCC2)cc1
0.49	-0.8	CCOc1ccc(NC(=O)COC(=O)Cc2ccc(S(=O)(=O)N3CCOCC3)s2)cc1
0.44	0.64	COc1ccc(CCNC(=O)COC(=O)Cc2cc(OC)c(OC)c(OC)c2)cc1
0.94	0.53	CCN(CC)CCCNC(=O)c1nn2c(C(F)(F)F)cc(-c3ccccc3)nc2c1Cl
0.11	-0.05	CCCCc1nnc(NC(=O)C(=O)OCC)s1
1.3	2.8	CCOC(=O)C1=C(N)OC2=C(C(=O)CCC2)C1c1sccc1C (configuration not stated)
0.59	-1.3	Cc1cccc(C)c1NC(=O)COC(=O)c1ccc2c(c1)OCO2
1.3	1.9	CCOC(=O)c1[nH]cnc1C(=O)Nc1cccc(OC)c1
0.17	-0.05	COC(=O)c1cc(NC(=O)Cc2coc3cc(OC)ccc23)cc(C(=O)OC)c1
7.5*	1.9*	O=C(NC(=S)Nc1ccccc1N1CCCC1)c1ccco1
1.3	-0.93	CCOc1ccc(/C=N/NC(=O)c2c(C)n(C)c3ccc(OC)cc23)cc1
0.46	0.87	Clc1cc2c(c(CSc3nc4ccccc4n4cccc34)c1)OCOC2
0.34	1.5	COc1ccccc1OCCCCn1c(C(C)O)nc2ccccc21 (configuration not stated)
1.2	-0.57	O=C(COC(=O)c1ccccc1NC(=O)c1ccco1)NC1CCS(=O)(=O)C1 (configuration not stated)
0.67	0.03	O=C(CCc1nnc(-c2ccc3c(c2)OCO3)o1)N1CCC(c2ccc(F)cc2)C1 (configuration not stated)
1.6	-0.01	O=C1CCc2cc(NS(=O)(=O)c3ccccc3)cc3c2N1CCC3
1.1	0.68	O=C(NC(=S)NCC1CCCO1)c1ccc(Cl)cc1 (configuration not stated)
0.74	0.14	CN(C)S(=O)(=O)Oc1cccc(C(=O)Nc2ccc([N+](=O)[O-])cc2)c1

Continued:
KCNQ2 enhance	KCNQ2 enhance baseline	structure
0.35	0	Cc1cc(C)c2nncn2n1
0.58	-4.6	CC1CCCCN1CCCn1c(=S)[nH]c2ccccc2c1=O (configuration not stated)
0.3	0.12	COc1cc(/C=N/NC(=O)c2ccc3c(c2)OCCO3)cc(Br)c1O
1.8	-0.07	Cc1cc2nccc(-c3ccc(F)cc3)n2n1
0.47	0.6	Cc1c(NC(=O)CC(C)C)c(=O)n(-c2ccccc2)n1C
1.1	0.46	CCOc1ccc(C(=O)Nc2nc3ccccc3[nH]2)cc1OCC
1	-0.17	CC(=O)c1ccc(OCC(=O)N(C2CCCCC2)C2CCS(=O)(=O)C2)cc1 (configuration not stated)
1.1	-0.68	Cc1ccc(/C=N/n2c(-c3ccccn3)n[nH]c2=S)o1
0.37	-1.2	COCCNC(=O)CNS(=O)(=O)c1ccc2nc(C)sc2c1
1.2	0	O=C(c1cccs1)N1CCN(CCc2ccccc2)CC1
0.54	-1.5	COC(=O)Nc1ccc(=O)n(Cc2c(Cl)cccc2Cl)c1
0.36	-0.03	COc1ccccc1N(CC(O)CN1C(=O)NC(C)(C)C1=O)S(=O)(=O)c1ccc(C)cc1 (configuration not stated)
2.4	0.16	Cn1c(N)c(C(=O)COC(=O)CCC(=O)c2ccc(F)cc2)c(=O)n(C)c1=O
0.97	-0.97	O=C(CSc1nnc(CNC(=O)c2ccccc2F)o1)NCc1ccccc1
0.25	-3.1	Cn1c(=O)c(C(=O)NCC2CCCO2)c(O)c2ccccc21 (configuration not stated)
0.01	-0.43	Cc1cc(=O)n2c(n1)NC(Nc1cccc(C)c1C)=NC2c1ccccc1 (configuration not stated)
0.71	-2	CCC(C)NC(=O)C1CCCN(c2nc(C)cc(OC)n2)C1 (configuration not stated)
0.19	-1.8	CCCN1CN=C(Nc2nc3ccccc3o2)NC1
1.6	-2.4	COc1ccc(C(=O)Nc2cccc(-c3cnc4ccccc4n3)c2)cc1
0.5	-1.9	Nn1c(SCc2ccc([N+](=O)[O-])cc2)nc2ccccc2c1=O
0.15	0.04	O=C(Nc1ccc([N+](=O)[O-])cc1)c1ccc(Cn2cc([N+](=O)[O-])cn2)cc1
1.4	0.83	CCNC(=O)c1cc(Br)ccc1Cl
0.91	-0.99	O=C(COc1ccc(S(=O)(=O)N2CCCCC2)cc1)NC1CCCCC1
0.39	-0.55	O=C(/C=C/c1cccs1)c1ccc(NC(=O)c2ccccc2F)cc1
1.3	1.5	COc1cccc2c(=O)n(CC(=O)N3CCCCCC3)ccc12

An excerpt from above in order of their number in KCNQ2 enhance, descending.
SMILES	KCNQ2 enhance
O=C(c1cccs1)N1CCN(CCc2ccccc2)CC1	1.2
COc1ccc(Nc2ccc(N3C(=O)CCCC3=O)cc2[N+](=O)[O-])cc1OC	0.89
O=C(OCc1ccccc1)c1ccc(Br)o1	0.79
COc1ccccc1N(CC(O)CN1C(=O)NC(C)(C)C1=O)S(=O)(=O)c1ccc(C)cc1 (configuration not stated)	0.36

(list continues)
KCNQ2 enhance	KCNQ2 enhance baseline	structure
1	-2.2	COc1ccc(CN(C)C(=O)Cc2c[nH]c3ccccc23)cc1
1.9	-0.86	CCOC(=O)C1(Cc2ccc(OC)cc2)CCN(C(=O)c2ccc3[nH]ccc3c2)CC1
1.5	-2	C=CCN1C(=O)C(CC(=O)NCC)SC1=Nc1cc(Cl)ccc1Cl (configuration not stated)
0.03	0.1	Cc1ccccc1CN1CCN(CC(=O)NCc2ccccn2)C1=O
0.38	0.13	O=[N+]([O-])c1ccc(-c2cn3c(n2)CCC3)cc1
0.69	-0.19	CCN1C(=O)N(CN2CCOCC2)C2C1N(CN1CCOCC1)C(=O)N2CC (configuration not stated)
1.2	-2.4	CC1CCC(NC(=O)CCS(=O)(=O)c2ccc3c(c2)oc(=O)n3C)CC1 (configuration not stated)
0.92	-0.74	Cc1cc(C(=O)CCC(=O)N(C)CC(=O)Nc2ccccc2Br)c(C)s1
9.6*	2*	O=C(O)CCSc1ncnc2sc(-c3ccccc3)cc12
0.04	-0.5	COCCNC(=O)C(c1cccs1)N(C(=O)Cn1nnc2ccccc21)c1ccc2c(c1)OCO2 (configuration not stated)
0.34	-0.07	CC(C)(C)NC(=O)CCN1CCOCC1
0.28	-0.57	COC1(OC)C(=N/O)/C(=N\O)CCC1O (configuration not stated)
1.1	0	CCCN1CNC(=S)N(CC2CCCO2)C1 (configuration not stated)
0.46	1.1	CCN(CC)C(=S)NC(=O)c1ccc(F)cc1
1.1	0.61	CC1Cc2nc(SCC(=O)N3CCN(c4ccccc4)CC3)n(C)c(=O)c2S1 (configuration not stated)
0.95	-0.48	COc1ccc(-c2cc(C(N)=O)nc(N3CCCCCC3)n2)cc1
0.03	-0.47	CCC(C)C(NC(=O)C1CCC(C)CC1)C(=O)NCCCN1CCCCC1CC (configuration not stated)
1.1	0.04	CCN(CC)CCCNC(=O)Cc1c(C(=O)O)n(C)c2ccccc12
1.3	0.28	Cc1cccc(NC(=O)NC(=S)NC(=O)c2ccccc2)c1
0.53	0.84	CCc1ccc(/C=C2\Oc3ccc(C(=O)OC)cc3C2=O)cc1
0.76	1.2	COc1cccc(NC(=O)CN(C)C(=O)Cc2ccc(Cl)cc2Cl)c1
1.6	-2.1	Cc1ccc(NC(=O)c2ccc(NC(=O)C3CCCCC3C(=O)O)cc2)cc1 (configuration not stated)
0.06	-1.4	CCCOc1nc(C)cc(COC)c1C(N)=O
1.5	-1.8	COc1ccc(NC(=O)CSc2nccn2Cc2ccccc2)c(OC)c1
0.72	-0.81	COc1cc(NC(=O)c2cc(C)on2)cc(OC)c1OC

Taken from the entries so far (3 entries):
KCNQ2 enhance	KCNQ2 enhance baseline	structure
0.06	-1.4	CCCOc1nc(C)cc(COC)c1C(N)=O
1.5	-1.8	COc1ccc(NC(=O)CSc2nccn2Cc2ccccc2)c(OC)c1
0.72	-0.81	COc1cc(NC(=O)c2cc(C)on2)cc(OC)c1OC

Ordered by length of the SMILES (low to high): some entries from above
KCNQ2 enhance	KCNQ2 enhance baseline	structure
2.9	-1.2	O=C(CCNC(=O)c1ccccc1Cl)Nc1nccs1
0.74	0.14	CN(C)S(=O)(=O)Oc1cccc(C(=O)Nc2ccc([N+](=O)[O-])cc2)c1
0.08	0.52	COc1ccc2nc(NC(=O)CCNS(=O)(=O)c3ccc4c(c3)oc(=O)n4C)sc2c1

Going on with the list:
KCNQ2 enhance	KCNQ2 enhance baseline	structure
0.71	-0.77	C(#Cc1ccccc1)C[N+]1(CC#Cc2ccccc2)CCCCC1
0.09	-1.9	CC(=O)c1ccc(COC(=O)c2ccccc2NC(=O)C(C)C)cc1
0.01	0.88	COc1ccc(NC(=O)CC2SC(=O)NC2=O)cc1 (configuration not stated)
0.07	-2.2	CCCCc1ccc(NC(=O)CSC2=NN3CCCC(=O)N=C3S2)cc1
1.7	0.76	Cc1c(C(=O)N2CCN(Cc3ccccc3)CC2)oc2c1C(=O)CCC2
2	-0.89	NS(=O)(=O)c1ccc(N=Nc2c(-c3ccccc3)[nH]n(-c3nc(-c4ccccc4)cs3)c2=O)cc1
0.45	-0.1	Cc1[nH]c2ccccc2c(=O)c1CN1CCCCCC1
2.1	1.2	CCc1ccccc1NC(=O)CSc1nnc(-c2ccncc2)o1
0.26	0.28	CC1(C)NC(=O)N(CCOc2ccc3c(c2)CCC3)C1=O
0.84	0.01	Cc1cc2oc(=O)cc(CN3CCOCC3)c2cc1Cl
0.65	0.04	O=c1c2c3c(sc2nc2n1CCCC2)CCC3
0.01	0	Cc1cc(Cl)c(C(=O)Nc2cccc(C(F)(F)F)c2)c(C)n1
0.19	-2.2	CC1(C)Cc2c(cnn2-c2cccc(F)c2)C(NC(=O)C2CCOCC2)C1 (configuration not stated)
1.8	-0.08	CCOc1ccc(N(CC(=O)NC2CCCC2)S(=O)(=O)c2c(C)[nH]c(=O)[nH]c2=O)cc1
0.78	0.13	Cc1ccc2c(c1)N(C(=O)CCC(=O)NC1CCC(C)CC1)CCO2 (configuration not stated)
2.9	0.02	CCOC(=O)c1cnc2ccc(OCC)cc2c1NCCCN1CCOCC1
0.55	-1.1	CN=C1SC(C(=O)Nc2ccccc2Cl)CC(=O)N1c1ccc(OC(F)(F)Cl)cc1 (configuration not stated)
0.24	0.75	Cc1cccn2cc(CNS(=O)(=O)c3cccc(F)c3)nc12

Retrieved by compound from the entries so far (two):
KCNQ2 enhance	KCNQ2 enhance baseline	structure
0.01	0	Cc1cc(Cl)c(C(=O)Nc2cccc(C(F)(F)F)c2)c(C)n1
0.09	-1.9	CC(=O)c1ccc(COC(=O)c2ccccc2NC(=O)C(C)C)cc1

Screening results from PubChem BioAssay.
